Screening results (PubChem BioAssay)
Rce1 inh: yeast Ras-converting enzyme inhibition; calls only; yeast membranes, quenched prenylated peptide cleavage fluorescence; Q03530; hit rate 0.27% among 290,000;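 active = fall in fluorescence gain of 50% or more versus controls, with final raw signal at or below 3038400; inconclusive = same 50% fall but final raw signal above 3038400; inactive = fall in fluorescence gain under 50%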;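 also: plate controls were neutral control wells for no effect and wells lacking membranes for full effect; tested at 10 µM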
Target sequence (Q03530 whole entry, looked up): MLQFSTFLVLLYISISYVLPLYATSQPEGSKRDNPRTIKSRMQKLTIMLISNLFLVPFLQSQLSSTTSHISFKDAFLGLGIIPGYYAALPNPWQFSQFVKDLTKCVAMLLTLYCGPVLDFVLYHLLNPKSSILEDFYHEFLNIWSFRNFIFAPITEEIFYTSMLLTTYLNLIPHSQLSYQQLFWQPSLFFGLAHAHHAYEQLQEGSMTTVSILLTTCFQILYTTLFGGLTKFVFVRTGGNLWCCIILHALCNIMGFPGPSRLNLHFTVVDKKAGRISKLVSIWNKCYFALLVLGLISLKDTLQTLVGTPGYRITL
eIF4H FP inh: inhibitors of RNA binding by human eIF4H. hit rate 0.94% among 290,000. inhibition, % at 35 µM. eIF4H fluorescence polarization binding assay. Q15056. AID 2012;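 active = 50% or more with normal probe brightness, or confirmed in later tests; inconclusive = above 50% with abnormal brightness, or retests that disagree; inactive = below 50% or failed in later tests; about a fifth of its hits are not listed in these tables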;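 also: calls also rest on retests at 20 µM and on dose response follow-up; 0% = protein and probe with vehicle and 100% = probe without protein; strong numbers were not always called active; many hits fall short of the cut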
CSC inhib: blocks cancer stem cells. AID 2717. inhibition, % at 7.5 µM. hit rate 1.1% among 300,000. cancer stem cell-like cells viability, luminescence;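 active = mean at 75% or more and at least half the replicates too; inconclusive = mean and replicates disagree; tested in HMLE shEcad cells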;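 also: 0% = median of negative and 100% = median of positive control wells; the first replicate is given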
Yeast UUG start: modulators of start codon recognition fidelity in yeast; S. cerevisiae UUG-firefly luciferase reporter, luminescence/redox ratio; activity score, % at 18.7 µM; hit rate 0.13% among 350,000; AID 602363;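 active = replicate mean at a twofold rise or more, about +100% in these data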;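 also: firefly luciferase made from a UUG start codon reports start codon fidelity; reporter light over untreated wells divided by growth signal over untreated wells; some hits fall short of that in this replicate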
Env fusion inh: inhibitors of HIV Env-mediated cell fusion; HeLa-JRFL Env/CEM21 cell fusion, luciferase; inhibition, % at 12.3 µM; hit rate 1.1% among 360,000;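 active = mean replicate inhibition score of at least 50 and every replicate individually at or above 50; inconclusive = only one of the two criteria met; inactive = mean below 50 and not all replicates reaching 50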;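 also: 0% = plate neutral controls and 100% = maraviroc near 300 nM; one replicate is shown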
PABP FP inh: blocks human PABP binding to poly(A) RNA. fluorescence polarization. inhibition, % at 35 µM. hit rate 1% among 290,000. AID 2014;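 active = 50% or more with normal probe brightness, or confirmed in later tests; inconclusive = above 50% with abnormal brightness, or retests that disagree; inactive = below 50% or failed in later tests; about a fifth of its hits are not listed in these tables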;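 also: calls also rest on retests at 20 µM and on dose response follow-up; controls were probe without protein and protein plus probe with vehicle; some compounds called inactive have numbers as strong as hits; many hits fall short of the cut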
MT1-MMP act inh: MT1-MMP (human) activation inhibition; P50281; HT1080 RFP-PRO-GFP cells, GFP/RFP ratio fluorescence, overnight; percent of plate control window, DMSO zero; GFP/RFP ratio change, % at 20 µM; hit rate 0.061% among 360,000; AID 651647;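 active = GFP/RFP ratio change of at least 30% with cell ATP level not reduced by more than half and red fluorescence within 50% of control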; also: strong numbers were not always called active
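Assay system: HT1080 cells carrying an RFP-PRO-GFP reporter | Dosing: Single dose of 20 µM compound, 1% DMSO final | Incubation: Cells overnight before dosing, compound overnight, 37 °C, 5% CO2 | Evaluation: GFP/RFP fluorescence ratio | Control set: DMSO and RFP-L50D-GFP cell wells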
eIF4H FP inh retest: further read-out of eIF4H FP inh, marked with its call; inhibition, %; compound at 20 µM; confirmation average;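 mean of two retest wells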
PABP FP inh retest: further read-out of PABP FP inh, marked with its call; inhibition, %; compound at 20 µM; confirmation repeats;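 mean of two retest wells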
MT1-MMP act inh RFP: also measured in MT1-MMP act inh; calls as there; RFP signal change, %; measured here: RFP expression control read;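 0 = vehicle wells; hits needed this value within 50% of zero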
* = called active by the depositor; i = inactive; ? = inconclusive; / = not tested or not shown. These rows are one share of the data, so the mix of outcomes need not match the whole.

SMILES | Rce1 inh | eIF4H FP inh | CSC inhib | Yeast UUG start | Env fusion inh | PABP FP inh | MT1-MMP act inh | MT1-MMP act inh RFP | others
CCC(=O)c1ccc(OCC(=O)N2CCN(CC(=O)Nc3ccc(C)cc3)CC2)cc1 | / | / | -4 | -39 | / | / | 4 | -6
O=C1NC(=O)N(c2ccccc2)C(=O)/C1=C\c1ccccc1[N+](=O)[O-] | i | 14 | 6 | / | 12 | -16 | -2 | 0
O=C(O)c1cccc2c1NC(C(=O)O)C1CC(Sc3ccccc3[N+](=O)[O-])C(Cl)C21 (stereo not given) | / | 96 | 5 | -19 | -29 | -6 | 38* | -2.6* | eIF4H FP inh retest=33;PABP FP inh retest=17
CCOc1ccc(N=Cc2c(O)n(-c3cc(C)cc(C)c3)c(=O)[nH]c2=O)cc1 | i | -7 | -12 | / | 3 | 5 | 4 | 4
O=c1[nH]c(=O)n(C2CCCCC2)c(O)c1/C=N/N1CCCCC1c1cccnc1 (stereo not given) | i | -1 | -8 | -9 | -9 | -2 | -5 | -3
O=C1c2cccc3cccc(c23)C(=O)N1/N=C/c1c(O)n(-c2ccccc2)c(=O)[nH]c1=O | i | ? | 0 | / | -8 | ? | -5 | 4
CCOC(=O)C(O)(c1ccc(NC(=O)c2ccc(Cl)c(Cl)c2)cc1)C(F)(F)F (stereo not given) | i | -17 | 26 | -2 | -3 | 2 | 3 | -7
CCC12CN3CCN(CC(C3)/C1=N/NC(=O)c1ccncc1)C2 | i | 7 | -7 | 1 | 0 | -7 | -1 | 6
CN1C(=O)N(C)C(=O)C2(Cc3ccccc3N3CCOCC32)C1=O (stereo not given) | i | 1 | -14 | -6 | -41 | 1 | -2 | 1
c1cncc(C2Nc3cccc4cccc(c34)N2)c1 | i | 92* | 8 | 16 | 15 | 60* | -3 | 3
CCOC(=O)C1(CCc2ccccc2)CCN(CC(O)CO)CC1 (stereo not given) | i | 1 | -5 | -7 | 1 | -4 | -3 | 1
Cc1c2cnn(CC(=O)N3CCC4(CC3)OCCO4)c(=O)c2c(C)n1Cc1ccccc1F | i | 6 | -8 | -3 | / | 6 | 0 | 4
CCc1nc2ccccc2c(=O)n1-c1ccccc1[N+](=O)[O-] | i | -4 | -19 | -2 | 10 | 12 | 5 | 3
Cn1c(=O)cc(OCC(=O)N2CCN(Cc3ccc4c(c3)OCO4)CC2)c2ccccc21 | i | -8 | -14 | -21 | 25 | -9 | -3 | 3
O=[N+]([O-])[N-][n+]1cnn(Cc2ccc(Cl)cc2)c1 | i | -3 | -5 | / | 0 | -4 | -2 | -5
C(#CCN1CCOCC1)COC/C=C/c1ccccc1 | i | 5 | 7 | / | / | 1 | 2 | 2
COc1cc(CN2CCCC(C(=O)c3sccc3C)C2)cc(OC)c1O (stereo not given) | i | -7 | -19 | / | -15 | -8 | 1 | 3
CC1(C)CC(n2[nH]c(=O)c3c2NC(=O)CSC3c2ccc(F)cc2)CCO1 (stereo not given) | i | -8 | -12 | -9 | / | 0 | 2 | -1
CCOP(=O)(OCC)C(NC(C)=O)C(Cl)(Cl)Cl (stereo not given) | i | 2 | -7 | -19 | -13 | -4 | 0 | 3
COC(=O)C1=C(c2ccc(-c3ccccc3)c(F)c2)C[C@@H]2CC[C@H]1N2C(=O)N1CCc2cc(OC)c(OC)cc2C1 | / | / | 41 | -8 | -2 | / | -2 | -6
Cc1cccc(CN2CCCC(C(=O)c3ccc4c(c3)OCO4)C2)n1 (stereo not given) | i | 7 | 3 | -9 | -11 | 9 | 0 | 4
O=C1NC(=O)N(Cc2ccco2)C(=O)/C1=C\c1cccn1CCOc1ccccc1 | i | 49 | 13 | / | -7 | 11 | -4 | 4
CC(=O)N1Cc2cnnn2-c2ccccc2C1(C#N)Cc1ccccc1 (stereo not given) | / | / | / | -16 | 3 | / | 1 | 4
CCN(CC)S(=O)(=O)c1ccc(C)c(NCC(=O)Nc2ccc(C#N)c(Cl)c2)c1 | i | -4 | 8 | -18 | 22 | -1 | 1 | -18
CCC(C#N)(CC)P(=S)(c1ccccc1)c1ccccc1 | i | -4 | 11 | / | 22 | -5 | -7 | -4

Next part.
SMILES | Rce1 inh | eIF4H FP inh | CSC inhib | Yeast UUG start | Env fusion inh | PABP FP inh | MT1-MMP act inh | MT1-MMP act inh RFP | others
CC(C)OCCCNC(=O)c1c(N)n(Cc2cccs2)c2nc3ccccc3nc12 | i | 3 | 118* | -4 | / | -7 | -4 | 0
O=C(c1cc2ccccc2oc1=O)N1CCC2(CC1)OCCO2 | i | 4 | -7 | / | -23 | 27 | -4 | 3
C=CCn1c(O)c(C=NCCN2CCNCC2)c(=O)[nH]c1=O | i | -7 | 8 | -2 | 13 | 2 | 3 | 3
CNC(=O)c1cccn(Cc2ccc(C(F)(F)F)cc2)c1=O | i | 2 | 12 | / | -70 | -10 | 16 | 13
COC(=O)C(O)(c1ccc(N(C)C(=O)COc2ccccc2)cc1)C(F)(F)F (stereo not given) | i | -2 | -6 | / | / | 3 | 0 | 1
CS(=O)(=O)c1ccc(C2=C(CNC(=O)c3ccc([N+](=O)[O-])cc3)[C@H]3CC[C@@H](C2)N3Cc2ccccc2)cc1 | / | / | / | -8 | -17 | / | 0 | 1
Cc1ccc(C(=O)N2CC2C)cc1 (stereo not given) | / | / | / | -2 | -2 | / | -8 | -3
COc1ccc(CN2CCCC(C(=O)c3ccc(Cl)cc3)C2)c(OC)c1 (stereo not given) | i | 12 | 11 | -18 | -57 | -1 | -3 | -5
O=c1c2ccccc2nc(N2CCCC2)n1-c1ccccc1 | i | 57 | 66 | -10 | 19 | 1 | -3 | -4 | eIF4H FP inh retest=49;PABP FP inh retest=19
COc1ccc(CC2C(=O)N(C)C(=O)N(C)C2=O)c(OC)c1 | i | -3 | -17 | 0 | -71 | -1 | -2 | 6
CC(C)OC(=O)c1c(N)n(CC2CCCO2)c2nc3ccccc3nc12 (stereo not given) | i | -4 | 10 | -5 | / | 5 | 37* | -4.5*
COc1cc(C(=O)OC2C[C@H]3CC[C@@H](C2)N3)ccc1O (stereo not given in full) | i | 18 | 34 | 1 | -59 | 13 | -6 | -2
O=c1c2ccccc2nc(-c2ccoc2)n1-c1ccccc1 | i | 0 | 31 | -8 | / | 3 | 4 | -3
O=P(Oc1ccccc1)(Oc1ccccc1)C(O)c1ccc(Cl)cc1 (stereo not given) | i | / | 1 | -1 | -12 | / | 8 | 7
CCCCOC(=O)COc1cc(C)cc2oc(=O)c3c(c12)CCC3 | i | -4 | -13 | -17 | 16 | 4 | -10 | -12
O=C(O)C1C2CCC(O2)C1C(=O)NC1CCCCC1 (stereo not given) | i | 7 | 9 | / | -10 | 6 | 7 | 10
CCOc1ccc(NC(=O)c2c(O)[nH]c(=O)[nH]c2=O)cc1 | i | / | 6 | -21 | -23 | / | 3 | 9
O=C(c1cc(-c2ccccc2)nc2ccccc12)N1CCC2(CC1)OCCO2 | i | 5 | 2 | -10 | / | 9 | -5 | 1
NC(=O)c1cc(N2CC2)c([N+](=O)[O-])cc1[N+](=O)[O-] | i | / | -7 | -24 | -10 | / | -3 | -4
CCOP(=O)(CN(CC)CCNP(=O)(OCC)OCC)OCC | i | 0 | -8 | -14 | / | 10 | 6 | 2
OCC[N+]12CCC(CC1)C(C(O)(c1ccccc1)c1ccccc1)C2 (stereo not given) | i | -2 | -19 | / | 14 | 4 | -1 | -2
CCCCCn1c(=O)c(C(=O)Nc2c(C)n(C)n(-c3ccccc3)c2=O)c(O)c2ccccc21 | i | 6 | 12 | -14 | / | -4 | 0 | -8
CN1CCC(N(C)c2ccc(C(N)=O)cc2[N+](=O)[O-])CC1 | i | 0 | -10 | -14 | 15 | -6 | 0 | 0
O=C(O)c1ccc(-[n+]2c(-c3ccccc3)cc(-c3ccccc3)cc2-c2ccccc2)cc1 | i | / | -4 | 1 | -11 | / | 0 | 3
COc1ccc(-n2nnnc2C(c2cccs2)N2CCC3(CC2)C(=O)NCN3c2ccccc2)cc1 (stereo not given) | / | / | / | -16 | -111 | / | -2 | -8

Of the compounds above, these have an aryl methoxy group.
SMILES | Rce1 inh | eIF4H FP inh | CSC inhib | Yeast UUG start | Env fusion inh | PABP FP inh | MT1-MMP act inh | MT1-MMP act inh RFP | others
COc1cc(CN2CCCC(C(=O)c3sccc3C)C2)cc(OC)c1O (stereo not given) | i | -7 | -19 | / | -15 | -8 | 1 | 3
COC(=O)C1=C(c2ccc(-c3ccccc3)c(F)c2)C[C@@H]2CC[C@H]1N2C(=O)N1CCc2cc(OC)c(OC)cc2C1 | / | / | 41 | -8 | -2 | / | -2 | -6
COc1ccc(CN2CCCC(C(=O)c3ccc(Cl)cc3)C2)c(OC)c1 (stereo not given) | i | 12 | 11 | -18 | -57 | -1 | -3 | -5
COc1ccc(CC2C(=O)N(C)C(=O)N(C)C2=O)c(OC)c1 | i | -3 | -17 | 0 | -71 | -1 | -2 | 6
COc1cc(C(=O)OC2C[C@H]3CC[C@@H](C2)N3)ccc1O (stereo not given in full) | i | 18 | 34 | 1 | -59 | 13 | -6 | -2
COc1ccc(-n2nnnc2C(c2cccs2)N2CCC3(CC2)C(=O)NCN3c2ccccc2)cc1 (stereo not given) | / | / | / | -16 | -111 | / | -2 | -8

The listing continues:
SMILES | Rce1 inh | eIF4H FP inh | CSC inhib | Yeast UUG start | Env fusion inh | PABP FP inh | MT1-MMP act inh | MT1-MMP act inh RFP | others
CC(C)=CCOc1c2occc2cc2ccc(=O)oc12 | i | -6 | 3 | -6 | -57 | -6 | 2 | 2
CCOC(=O)c1nc2ccccc2c(=O)n1-c1ccc(C)cc1C | i | -12 | 0 | 2 | -1 | -13 | -8 | -8
CN1CCN(c2ncnc3ccc(Br)cc23)CC1 | / | 16 | -8 | -3 | 46 | 0 | -8 | -9
CCCSc1nc(O)c(CC)c(=O)n1C(C)CC (stereo not given) | i | -4 | -13 | -12 | -37 | -1 | 5 | 11
N#Cc1ncc(N=Cc2ccc(N(CCCl)CCCl)cc2)s1 | / | / | / | -9 | -2 | / | 6 | 5
CCOc1ccc(-n2c(O)c(N=Nc3c(C)n(C)n(-c4ccccc4)c3=O)c(=O)[nH]c2=O)cc1 | i | -6 | -7 | -25 | 3 | -17 | 6 | 6
CNP(=S)(NC)OCCOc1ccc(OC)cc1 | i | 2 | -1 | -10 | / | -6 | 4 | 1
COc1ccc(Cl)cc1NC1=NCC(C)S1 (stereo not given) | i | -3 | -11 | -10 | -70 | 4 | -5 | -1
Cc1ccc(C(=O)Nc2ccc(Cl)cc2C(=O)c2ccccc2)cc1 | i | / | 6 | -9 | -51 | / | 0 | -4
O=P1(Nc2cccnc2)COc2ccccc2OC1 | i | 7 | 0 | -5 | -53 | -4 | 4 | -4
